2A firefly = FMDV 2A StopGo reporter, firefly signal; Potency, µM (series often up to 57.5 µM), for inactives: top-dose signal change, negative = less light; HEK cells with a luciferase reporter of 2A StopGo recoding; 120,000 compounds, 0.23% hits; active = well fitted falling curve with a large enough effect; inconclusive = small, poorly fitted or top-dose-only effect; inactive = no such curve, though single readings can be large or run the other way; also: nearly all actives have a fitted effect of over 60% in size; overnight with compound
StopGo RLuc = FMDV 2A StopGo reporter, Renilla signal. HEK cells with a luciferase reporter of 2A StopGo recoding. Potency, µM (top dose mostly 57.5 µM), without a hit: top-dose signal change, negative = less light. 120,000 compounds, 0.32% hits. AID 1745857; active means well fitted falling curve with a large enough effect; inconclusive means small, poorly fitted or top-dose-only effect; inactive means no such curve, though single readings can be large or run the other way; also: nearly all actives have a fitted effect of over 55% in size; overnight with compound
Numbers without * were called inactive; ? = inconclusive; & = joins results of further samples; [ ] = remark or other dose. % is scaled to controls: 0 for no effect and ±100 for the full control effect; potency is read from the fitted curve at half-maximal effect. The list is partial. The share of hits here may be higher or lower than overall.

SMILES	2A firefly	StopGo RLuc
COc1ccc(Cn2c(CNS(=O)(=O)c3ccc(C)c(C)c3)nc3cccnc32)cc1	1%	-20%
Cc1ccc(CNC(=O)CCc2c(C)nc3nc(CNC(=O)OC(C)(C)C)nn3c2C)cc1	-13%	8%
Cc1ccc(OC(C)C(=O)NC2CCCC2)cc1C (stereo not given)	0%	5%
CN(Cc1cc(=O)n2cc(Cl)ccc2n1)Cc1ccc(F)cc1F	79%[activator]	6%
CCc1cccc(C)c1NC(=O)CCCn1c(=O)c2cccn2c2cccnc21	-11%	-6%
Cc1c(C(=O)CSc2nnc(C3CC3)n2C2CC2)sc2ccccc12	164%[activator]	5%
COc1cc(/C=C(/C#N)c2ccccn2)cc(Cl)c1OC(F)F	0%	-3%
Cc1[nH]c2cc3c(-c4ccccc4)cc(-c4ccccc4)nc3cc2c1C	-9%	-8%
FC(F)(F)c1ccc(Cl)c(N/N=C/C=C/c2ccccc2)c1	13%	2%
Cc1ccc(NC(=O)CSc2nc(=O)n(Cc3ccncc3)c3c2CCC3)cc1Cl	-3%	-2%

Further entries
SMILES	2A firefly	StopGo RLuc
CCOc1ccc(C(=O)Nc2ccc3c(c2)N(C(C)=O)CCC3)cc1OCC	?	4%
Cn1c(=O)c2c(ncn2CCCC(=O)Nc2cccc(C(F)(F)F)c2)n(C)c1=O	-9%	-7%
COc1cccc(C(=O)NCC(=O)OCc2cc(=O)n3c(C)csc3n2)c1	-3%	-6%
CN(C)CCOc1ccc(C(=O)/C=C/c2ccc(C(=O)O)cc2)cc1	106%[activator]	-3%
O=C(Nc1ccncc1)c1cccc(OCc2ccc(F)cc2)c1	?	6.3µM*
COc1ccc(CCNC(=O)C(=O)Nc2ccc(C)cc2)cc1OC	26%	-5%
O=C(NCc1ccco1)C1CCN(C(=O)N2CCOc3ccccc32)CC1	-7%	-10%
N#C/C(=C/c1ccc(OC(F)F)cc1)c1ccc(C(F)(F)F)cn1	0%	2%
O=c1oc2ccccc2c(NC2CCCC2)c1NS(=O)(=O)c1ccc(Cl)cc1	0%	31%[activator]
CCOc1ccc(-c2c(C)nn3c(C)c(C(=O)Nc4cc(C)cc(C)c4)cnc23)cc1OCC	0%	16%

(cont.)
SMILES	2A firefly	StopGo RLuc
C/C(=N\NC(=S)Nc1cccc(C)c1)c1ccc(Br)cc1	59%[activator]	7%
N#CCN(CC#N)C(=O)c1ccc2c(c1)OCCCO2	-10%	-5%
Cc1ccc(C)c(CN2C(=O)c3ccccc3S(=O)(=O)c3ccc(C(=O)N4CCOCC4)cc32)c1	0%	98%[activator]
CC(CCN1CCC(C(O)(c2ccccc2)c2ccccc2)CC1)Oc1ccc(F)cc1 (stereo not given)	-10%	-2%
CCCN1CCN(c2ncnc3sc(C(=O)Nc4c(C)cc(C)cc4C)c(C)c23)CC1	-5%	-4%
CC(=O)Nc1cccc(C(C)NC(=O)Nc2cc(Cl)ccc2Cl)c1 (stereo not given)	54%[activator]	37%[activator]
CC(=O)c1ccc(NC(=O)C2CCCN(S(=O)(=O)c3ccc4c(c3)CCCN4C(C)=O)C2)cc1 (stereo not given)	7%	7%
CCOC(=O)c1c(NC(=O)c2cc(=O)c3ccccc3o2)sc(C)c1C	8%	2%
COc1cccc2c1C(=O)c1c(O)c3c(c(O)c1C2=O)C[C@@](O)(C(C)=O)C[C@@H]3O[C@H]1C[C@H](N)[C@H](O)[C@H](C)O1	-30%[11.5 µM]	?
COc1cccc(NC(=O)C2CCC(CNS(=O)(=O)c3ccc4c(c3)CCCC(=O)N4)CC2)c1 (stereo not given)	57%[activator]	76%[activator]

(continued)
SMILES	2A firefly	StopGo RLuc
CCn1c(SCC(=O)O)nc2c(=O)n(C)c(=O)n(C)c21	0%	1%
O=C(NCc1ccc(Cl)cc1)C1CCN(S(=O)(=O)c2cccc3nonc23)CC1	-12%	-10%
CSc1ccc(/C=C/C(=O)c2cc3cc(Cl)ccc3oc2=O)cc1	12%	14%
COc1cccc(-c2noc(-c3occc3Br)n2)c1	0%	-4%
CCN(CC)C(=O)c1sc2c(c1C)c(=O)n(-c1ccccc1)c(=O)n2Cc1c(C)cc(C)cc1C	-7%	17%
N#Cc1ccc(OC(=O)c2ccc(N3CCOCC3)nc2)cc1	0%	13%
O=C(CSc1nnc(N2CCOCC2)n1-c1cccc(F)c1)N(Cc1ccco1)C1=CCCCC1	-12%	8%
Cc1cc(C)cc(N(CC(=O)Nc2c(C)cc(C)cc2C)S(=O)(=O)c2c(C)nn(C)c2C)c1	-21%	-11%
CCCC(=O)Nc1ccc(C(=O)OC/C(=N/O)c2ccc(OC)cc2)cc1	0%	2%
O=C(N/N=C/c1ccc([N+](=O)[O-])o1)C1CCCCC1	-21%	?

(continued)
SMILES	2A firefly	StopGo RLuc
Cc1cc(C)c2c(CC(=O)N(Cc3ccccc3)C3CCS(=O)(=O)C3)coc2c1 (stereo not given)	-20%	-9%
COc1cccc(CN2CCc3nc(Nc4ccc5c(c4)OCCO5)ncc3C2)c1OC	101%[activator]	-25%
CC1CCC(NC(=O)c2cc(=O)[nH]c3ccccc23)CC1 (stereo not given)	41%[activator]	18%
Cc1cccc(C)c1NC(=O)CNC(=O)c1cc2cc(Cl)ccc2nc1C	-5%	-8%
COc1cc(-c2noc(-c3ccc(N(C)C)c([N+](=O)[O-])c3)n2)cc(OC)c1OC	-15%	-12%
CC(=O)NCCNC(=O)c1cn(Cc2ccccc2)c2ccccc12	4%	18%
Cc1ccccc1NC(=O)c1ccc(Cl)c(S(=O)(=O)N2CCCCCC2)c1	4%	-27%
Cc1csc(CCCCNC(=O)C2(c3ccc(Br)cc3)CC2)n1	-23%	0%
CN(Cc1ccccc1)C(=O)C1CCC(C(=O)N(C)Cc2ccccc2)CC1 (stereo not given)	?	-5%
CC1CN(c2cc3c(cc2F)c(=O)c(C(=O)O)cn3-c2ccc(F)cc2F)CCN1 (stereo not given)	-12%[5.23 µM]	-2%[5.77 µM]

Remaining list, next part
SMILES	2A firefly	StopGo RLuc
O=C(Nc1ccc(Br)cc1)Nc1nc2c(s1)CCCCCC2	0%	-7%
CCc1ccc2oc(-c3cccc(NC(=O)COc4ccc(OC)cc4)c3)nc2c1	210%[activator]	19%
Cc1ccc(C)c(Nc2ncnc3c2cnn3-c2ccc(F)cc2)c1	152%[activator]	-1%
O=C(NCc1cccs1)c1ccc(Cn2c(SCc3cccc(F)c3)nc3cccnc32)cc1	-42%	37%[activator]
Cc1cc(NC(=O)COC(=O)C2(c3ccc(Cl)cc3)CCC2)no1	0%	14%
Cn1cc(-c2cc3n(n2)CCC(=O)N3CCCC(=O)Nc2ccc(Cl)cc2)c2ccccc21	-19%	-13%
CCCC(C)(C)NC(=O)c1cc(OC)c(OC)c(OC)c1	0%	0%
COc1cc(C(=O)NC2CCCCC2)ccc1C	150%[activator]	-8%[1.06 µM]
O=C(/C(C=Nc1cccc(Cl)c1)=C(/O)c1ccco1)C(F)(F)F	3%	7%
O=C(CSc1nnc(Cc2ccccc2)n1-n1cccc1)Nc1ccccc1	-5%	23%

Compound profiles, from the list above. Order of values: 2A firefly, StopGo RLuc
Cc1ccc(C)c(Nc2ncnc3c2cnn3-c2ccc(F)cc2)c1 is listed as 152%[activator], -1%
O=C(NCc1cccs1)c1ccc(Cn2c(SCc3cccc(F)c3)nc3cccnc32)cc1 is listed as -42%, 37%[activator]
O=C(CSc1nnc(Cc2ccccc2)n1-n1cccc1)Nc1ccccc1 is listed as -5%, 23%
O=C(Nc1ccc(Br)cc1)Nc1nc2c(s1)CCCCCC2 is listed as 0%, -7%

The listing continues:
SMILES	2A firefly	StopGo RLuc
Cc1cn(C)c(CC(=O)NCc2ccccc2)c1C(=O)O	-8%	-8%
COc1ccc(N2Cc3cccc(C(=O)Nc4ccc(F)cc4)c3C2=O)cc1	-20%	-4%
COc1ccc(Cl)cc1NC(=O)Cn1c(=O)oc2cc(S(=O)(=O)N3CCCCCC3)ccc21	-17%	13%
CCN(CC)c1cc(C)nc(NCc2ccccc2)n1	?	?
Cc1ccc(S(=O)(=O)N(CC(O)Cn2cnc3ccccc32)c2cccc(C)c2)cc1 (stereo not given)	-5%	37%[activator]
Cc1ccc(CN(C(=O)CC23CC4CC(CC(O)(C4)C2)C3)C2CC2)o1	-1%	5%
CCOC(=O)C1CCN(C(=O)CSc2nnc(-c3ccc(Cl)cc3)n2N)CC1	-1%	-6%
CCc1ccc(NC(=O)CSc2nc3cc([N+](=O)[O-])ccc3o2)cc1	52%[activator]	60%[activator]
COCCCNC(=O)CS(=O)Cc1nc(-c2cccc(C)c2)oc1C (stereo not given)	7%&8%	-2%&-5%
COc1ccc(C)cc1NC(=O)c1cccn(Cc2cccc([N+](=O)[O-])c2)c1=O	7%	0%

Next section:
SMILES	2A firefly	StopGo RLuc
COCCNc1oc(COc2ccc(-c3ccccc3)cc2)nc1C#N	18%	-3%
CN(C)c1ccc(C(=O)NNC(=O)c2ccc(F)cc2)cc1	107%[activator]	-1%
O=C(CSc1n[nH]c(-c2ccccc2)n1)Nc1ccccc1C(F)(F)F	40%[activator]	19%
Cc1cccn2c(=O)c(C(=O)NCc3ccccc3Cl)c(O)nc12	-12%	-6%
CC1CCCC(NC(=O)CSCC#N)C1C (stereo not given)	-3%	2%
CC(C)CCN1CCN(C(=O)c2ccc(C#N)cc2)CC1	0%	0%
O=C(Nc1ccncc1)c1cc(-c2ccccc2)nc2ccccc12	0%	12%
O=C(Nc1cccc(Cl)c1)N1CC2CCCN2c2ccccc21 (stereo not given)	39%[activator]	-6%
Cc1ccc(NC(=O)c2cnc3cc(C)ccn3c2=O)c(C)c1	94%[activator]	-6%
N#CCC(=O)Nc1ccc(C(=O)OCC(=O)Nc2ccc(N3CCCCC3)cc2)cc1	54%[activator]	-10%

New compounds follow
SMILES	2A firefly	StopGo RLuc
Cc1ccc(-c2csc(/C=C/c3cccc(C(F)(F)F)c3)n2)cc1	21%	-12%
O=C(O)c1cccc(COc2ccc(Br)cc2)c1	?	7%
CCc1ccccc1NC(=O)CN(Cc1ccccc1)S(=O)(=O)c1ccc(Br)cc1	-13%	-9%
CC(C)(C)C(=O)N1CCN(c2ccc(NC(=O)C3(c4ccccc4)CCCC3)cc2)CC1	11%	0%
COc1ccc(C(CC(=O)Nc2ccc(C)c(C)c2)N2Cc3ccccc3C2=O)cc1OC (stereo not given)	-5%	96%[activator]
COC(=O)c1c(NC(=O)Cc2coc3cc(C)ccc23)sc2c1CCCC2	-11%	-11%
O=C(NCCN1CCCCCC1)C1CC=CCC1 (stereo not given)	1%	-7%
O=C(Cn1cc(I)c(=O)c(I)c1)N1CCCCC1	82%[activator]	10%[1.06 µM]
NCCS(N)(=O)=O	16%	15%
C#CCN1CCN(CC#N)CC12CCOC(C)(C)C2 (stereo not given)	19%	16%

A second format for two compounds above.
Results follow in this order: 2A firefly | StopGo RLuc
CCc1ccccc1NC(=O)CN(Cc1ccccc1)S(=O)(=O)c1ccc(Br)cc1
 : -13% | -9%
NCCS(N)(=O)=O
 : 16% | 15%

Additional records.
SMILES	2A firefly	StopGo RLuc
COC(=O)c1cccc(S(=O)(=O)NCc2ccc(N3CCCC3)nc2)c1	-10%	-6%
C[C@H]1NCc2cc(-c3ccc4c(=O)c(C(=O)O)cn(C5CC5)c4c3OC(F)F)ccc21	-7%[27 µM]	-8%[23.8 µM]
O=c1c(Cl)c(N2CCN(Cc3nc(-c4ccccc4Cl)no3)CC2)cnn1-c1ccccc1	-8%	-15%
O=C(COC(=O)CC12CC3CC(CC(C3)C1)C2)Nc1ccc([N+](=O)[O-])cc1C(F)(F)F	8%	12%
CCn1nc(C(=O)NCc2cccs2)c2ccccc2c1=O	19%	45%[activator]
CC(C)(C)OC(=O)NCCNC(=O)c1cc2ccccc2[nH]1	21%	-1%
CC(C)c1ccc(C2C3=C(CC(C)(C)CC3=O)OC3=C2C(=O)CC(C)(C)C3)cc1	-3%	8%
Cc1nc(COc2ccccc2C(=O)Nc2nc(-c3ccccc3)cs2)no1	101%[activator]	-4%
CNC(=O)COC(=O)c1cc(-c2cccs2)nc2ccccc12	21%	-8%
CCC(=O)NCCNC(=O)c1nc2ccccc2c(=O)[nH]1	89%[activator]	-10%

Continued.
SMILES	2A firefly	StopGo RLuc
O=C(Nc1ccccc1)c1cc(-c2ccccn2)nc2ccccc12	2%	-2%
O=C(Cc1csc2ccccc12)NC1CCCCCC1	0%	77%[activator]
CCCc1cc(=O)oc2c(C)c(OCC(=O)NCCN3CCOCC3)ccc12	-9%	-11%
CCOC(=O)c1ccc(NC(=O)c2nc3ccccc3nc2N2CCCCC2)cc1	-3%	-6%
Cc1ccc(-c2sc(C(=O)O)cc2C)o1	0%	16%
O=C(Cn1ncc2c(=O)oc3ccccc3c21)NCc1ccccc1Cl	-25%	-14%
Cc1cc(C)cc(OCC(=O)NCC2(N3CCOCC3)CCCCC2)c1	-17%	6%
Cc1cccc(CCNC(=O)c2cc3c(s2)-c2c(C)cccc2OC3)c1	8%	-3%
Cc1cc(-c2csc(Nc3ccc(O)cc3)n2)ccc1F	45%[activator]	?
COC(=O)c1sc2cccc(F)c2c1S(=O)(=O)N1CCN(c2ccc(C)cc2C)CC1	0%	25%
CCC(C)Cc1nc(N)c(C#N)c(-c2ccccc2)c1C (stereo not given)	?	?
CCOc1ccc(CCNC(=O)CCCc2nnc3n(CC(C)C)c(=O)c4sccc4n23)cc1	-13%	-8%
Cc1ccc(NS(=O)(=O)c2ccc(N/N=C/c3ccccc3)c([N+](=O)[O-])c2)c(C)c1	5%	-1%

Assay outcomes: PubChem BioAssay, National Center for Advancing Translational Sciences (NCATS)
